# Assay outcomes: PubChem, National Center for Advancing Translational Sciences (NCATS)
# gsp ag – agonists of gsp mutant (McCune-Albright syndrome); gsp mutant cells, cAMP HTRF, 30 min; control for the full effect not named in the record; Potency, µM (series often up to 76.9 µM), without a hit: top-dose activation (cAMP increase), hits mostly activators; 340,000 compounds, 0.13% hits; active = well fitted activation curve with a large enough effect; inconclusive = small, poorly fitted or top-dose-only effect, or another doubt; inactive = no such curve, though single readings can be large or run the other way; cell line not stated here;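 also: phosphodiesterase inhibitor Ro 20-1724 added with compounds to block cAMP breakdown; potency is read from the fitted curve at half-maximal effect; nearly all actives have a fitted effect of over 60% in size; about a fifth of the inactives were tested at one dose only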
#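 Cells stably selected in G418 were plated at 2000/well, grown 16-24 hr, then given compounds in DMSO with the PDE inhibitor […] (300 uM solution added) for 30 min at 37C; cAMP was read by HTRF.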
# TRPV1 potentiator – human TRPV1 potentiation | Q8NER1 | TRPV1-expressing cells, Fluo-8 calcium influx, capsaicin EC20 potentiation; host cell line not named in the record; control for the full effect not named in the record | potentiation, % at 8.33 µM | 320,000 compounds, 0.02% hits | AID 540277; active means potentiation above 80%; inconclusive means 30% to 80%; inactive means below 30%; also: 0% is about no effect
#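 TRPV1-expressing cells were cultured overnight at 35.5C and loaded with Fluo-8 calcium dye for 40 to 90 min at room temperature. After a 10 s baseline, compound was added and calcium influx was read kinetically for 3 min (ex 480/em 520 nm).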
# gsp antagonist – antagonizes gsp, the McCune-Albright syndrome mutation; gsp-mutant cells, cAMP HTRF, 30 min; control for the full effect not named in the record; Potency, µM (top dose mostly 76.9 µM), without a hit: top-dose activity change, negative = inhibition, usual class: inhibitors; 340,000 compounds, 0.4% hits; active = falling curve of any shape with a large fitted effect; inconclusive = falling curve, mostly with a smaller effect; inactive = flat or rising curve; cell line not stated here;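 also: intracellular cAMP measured with PDE inhibitor Ro 20-1724 present during compound exposure; potency is read from the fitted curve at half-maximal effect; % is scaled to controls: 0 for no effect and ±100 for the full control effect; nearly all actives have a fitted effect of over 65% in size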
#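 Cells, 2000/well, grown 16–24 h in DMEM 10% FBS with 0.5 mg/ml G418, then compounds plus […] (300 uM addition stock), 30 min at 37C. cAMP read by HTRF (cAMP-d2 and anti-cAMP antibody-K in lysis buffer) after 30 min RT.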
# ClpP mod – qHTS Assay for Activators of ClpP | ATP-dependent Clp protease proteolytic subunit (Bacillus subtilis (strain 168)), P80244 | purified B. subtilis ClpP, FRET peptide cleavage, 20 min | Potency, µM (series often up to 57.5 µM), inactives show top-dose activity change, negative = active | 340,000 compounds, 1.9% hits | AID 651965, 2013; active = well fitted falling curve with a large enough effect; inconclusive = small, poorly fitted or top-dose-only effect; inactive = no such curve, though single readings can be large or run the other way; also: potency is read from the fitted curve at half-maximal effect; the source files actives as falling curves though it sought activators and does not explain the sign; nearly all actives have a fitted effect of over 65% in size; many hits overshoot -100%
# Target sequence (P80244 whole entry, looked up): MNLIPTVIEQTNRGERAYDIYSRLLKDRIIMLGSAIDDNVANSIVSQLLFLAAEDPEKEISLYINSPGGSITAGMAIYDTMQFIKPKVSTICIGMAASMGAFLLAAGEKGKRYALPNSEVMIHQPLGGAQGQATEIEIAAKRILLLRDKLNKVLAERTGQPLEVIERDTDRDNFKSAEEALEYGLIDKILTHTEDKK
#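 ClpP 10 microg/mL final, pH 8 Tris/KCl buffer with BSA, glycerol, Tween-20; compound pinned in; FRET-FV substrate; RT 20 min; Ex320/Em430; ΔFRET vs ADEP 5.8 microM, DMSO, no enzyme.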
# Menin-MLL FL inh – displaces fluorescein MLL peptide from human menin; 290,000 tested, under 10 active; Fluorescence polarization, fluorescein-MLL peptide displacement from menin; FP activity change, % at 61.4 µM; inconclusive = falling polarisation curve, or a change in total fluorescence; inactive = total fluorescence flat and polarisation flat or rising; no compound was filed as active; the % refers to the polarisation; negative = inhibition;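 also: % of control where 0% means no effect; inhibitors lower the polarisation; unlabelled MLL peptide was the positive control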
# D2 PAM – potentiates the human D2 dopamine receptor allosterically; P14416; DiscoveRx D2 beta-arrestin cells, luminescence, 90 min; 100% = 57 uM dopamine signal; potentiation, % (test concentration not listed); 360,000 compounds, 0.23% hits; AID 624464; active = potentiation of 50% or more; inconclusive = 30% to 50%; inactive = 30% or less;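 also: compound concentration not given in the record; tested on top of an EC20 dose of dopamine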
# Target sequence (P14416 whole entry, looked up): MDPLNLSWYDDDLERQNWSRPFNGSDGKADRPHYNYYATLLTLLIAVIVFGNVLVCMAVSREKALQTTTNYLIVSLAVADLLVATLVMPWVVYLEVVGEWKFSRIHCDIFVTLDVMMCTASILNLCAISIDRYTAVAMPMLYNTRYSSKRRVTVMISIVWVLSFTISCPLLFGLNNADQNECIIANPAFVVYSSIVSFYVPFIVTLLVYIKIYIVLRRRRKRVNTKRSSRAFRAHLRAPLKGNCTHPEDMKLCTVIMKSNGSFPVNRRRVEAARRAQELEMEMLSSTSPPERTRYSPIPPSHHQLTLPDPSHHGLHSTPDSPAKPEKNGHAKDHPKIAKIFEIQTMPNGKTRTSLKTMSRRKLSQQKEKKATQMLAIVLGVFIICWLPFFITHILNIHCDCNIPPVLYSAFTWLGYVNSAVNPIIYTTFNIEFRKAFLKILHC
#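 PathHunter beta-arrestin assay in DiscoveRx D2 cells. Compounds were added with an EC20 of dopamine (50 nM final) for 90 min at 37 deg C. Luminescence was read 1 h after detection reagent, with 57 uM dopamine as the EC100 control.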
# Sfp inh – Sfp phosphopantetheinyl transferase inhibition | Q9F4F7 | Biochemical Sfp PPTase activity, qHTS | Potency, µM, without a hit: max response, negative = inhibition, actives largely listed as inhibitors | 310,000 compounds, 3.5% hits | AID 1490; active = well fitted inhibition curve with a large enough effect; inconclusive = small, poorly fitted or top-dose-only effect, or another doubt; inactive = no such curve, though single readings can be large or run the other way;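 also: the enzyme is Sfp with the accession as filed and its product quenches rhodamine fluorescence; potency is read from the fitted curve at half-maximal effect; 0% = enzyme reaction without inhibitor and -100% = no enzyme wells; top concentration of the series not given in the record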
#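 With Hepes-Na pH 7.6 buffer containing 10 mM MgCl2, Sfp (15 nM) modified BHQ-2-YbbR (12.5 uM) using rhodamine-CoA (5 uM). Two reads 30 minutes apart at 525/598 nm yielded each well's rate.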
# * marks the source's active call; other numbers are inactive results; ? = inconclusive; / = not tested or not shown; [ ] = another dose, or the depositor's remark.
SMILES,gsp ag,TRPV1 potentiator,gsp antagonist,ClpP mod,Menin-MLL FL inh,D2 PAM,Sfp inh
CN(C1CCCC1)C1CCN(C(=O)CNC(=O)/C=C/c2ccc(F)cc2)CC1,-11%[15.4 µM],-4,12%,0.3%,3.9,-3,-3%
O=C(NCCOc1nc(N2CCOCC2)nc(N2CCOCC2)n1)Nc1ccc(Cl)cc1,-42%[inhibitor],-3,7%,-1.0%,0.1,-3,1%
N=C1CCCN1c1ccccc1O,16%,4,-19%,-1.7%,-1.6,-11,13%
Cn1c(N)c(C(=O)COC(=O)CNS(=O)(=O)c2ccc(Cl)c(Cl)c2)c(=O)n(C)c1=O,5%,?,-8%,32µM*,0.6,-13,9%
COc1ccc(C(=O)Nc2ccc3c(c2)OCCO3)cc1,10%,-4,-12%,-1.6%,-0.7,-18,13%
CCOc1ccc(NC(=S)N2CCC(N(C)CCN3CCOCC3)CC2)cc1,7%,-9,4%,-1.0%,3.8,-10,-5%
Cc1cccc(N2CCN(C(=O)CNC(=O)Cc3ccccc3)CC2)c1C,-1%,/,-22%,-3.2%,/,3,/
COc1ccc(S(=O)(=O)N2C[C@H]3CON(C)[C@H]3C[C@H]2c2ccc(-c3cc4ccccc4o3)cc2)cc1,?,/,/,4.1%,/,4,/
Cc1ccc(C2NC(=O)CCC2[N+](=O)[O-])cc1 (stereo not given),-2%[15.4 µM],5,6%,/,-2.6,-2,5%
O=C(CSc1nc(=O)[nH]c2c1CCCC2)Nc1ccc(F)cc1F,24%,8,1%,-7.1%,/,-3,/
CCc1c(C)c2nncn2[nH]c1=O,22%,5,-3%,-3.0%,9.4,-4,7%
CCC(NC(=O)CCc1c(C)c2cc3c(C)c(C)oc3cc2oc1=O)C(=O)N[C@@H](Cc1ccccc1)C(=O)O (stereo not given in full),/,18,-2%,-13%,0.1,-13,6%
COc1ccc(-c2cn[nH]c2-c2ccc(OCc3ccc([N+](=O)[O-])cc3)cc2O)cc1OC,1%,-18,?,0.6%,1.7,5,32%[activator]
O=C(c1cccc(S(=O)(=O)N2CCOCC2)c1)N1CCN(c2ccccc2)CC1,4%,10,-6%,-0.7%,/,-9,/
Cc1cc(C)nc(SCC(=O)c2ccc([N+](=O)[O-])cc2)n1,-4%,7,-14%,-4.0%,-0.5,76*,45µM*
CCOc1ccc(C2NC(=O)c3ccccc3O2)cc1OCC (stereo not given),-4%[15.4 µM],19,2%,-1.5%,-0.8,-26,8%
COc1ccccc1C1CC(=O)NC(C)=C1C(=O)OCC(C)C (stereo not given),24%,10,-8%,8.0%,0.9,-9,13%
O=C(NCCC1CCCCN1S(=O)(=O)c1ccccc1)C(=O)NCC1CCCO1 (stereo not given),9%[15.4 µM],5,1%,0.5%,/,-8,/
Cc1ccc(S(=O)(=O)N2CCCCC2)cc1C(=O)OCC(=O)N1c2ccccc2NC(=O)C1(C)C,-3%,/,2%,/,/,3,/
Cc1c(CN(C)C)c2c(n1C)C(=O)c1ccc(Br)cc1-2,-18%,13,-9%,-0.3%,5.2,-28,11%
COc1ccc(-c2ccc(N(C)C)cc2)cc1[C@H]1[C@H]2C=CC[C@@H](C)[C@@H]2C(=O)N1Cc1ccccc1,/,-9,8%,2.2µM*,2.9,-1,-2%
O=C(Cn1cnc2ccccc2c1=O)NC1CCS(=O)(=O)C1 (stereo not given),26%,-4,0%,-2.3%,/,-16,/
CC1(C)CC(=O)C(N=Nc2ccc(OC(F)F)cc2)=C(O)C1,-2%[15.4 µM],-1,0%,/,-1.3,-5,13%
Oc1ccccc1C=NN1CCCCCC1,2%[15.4 µM],/,-8%,-4.1%,/,-2,/
CCOC(=O)Cc1csc(NC(=O)CSc2nnc(Cc3csc(N)n3)n2C)n1,2%,4,6%,-1.8%,0.2,1,?
# Next part
SMILES,gsp ag,TRPV1 potentiator,gsp antagonist,ClpP mod,Menin-MLL FL inh,D2 PAM,Sfp inh
Cc1ccc(NS(=O)(=O)c2ccc(C)c(C(=O)NCC(c3ccccc3)N(C)C)c2)cc1 (stereo not given),14%,25,0%,1.1%,/,-6,/
CC1=C(C(=O)OCC(C)C)C(c2ccc(Br)s2)NC(=O)N1 (stereo not given),?,-3,-1%,/,-0.3,4,10%
O=C(CCn1[nH]c(=O)c2ccccc2c1=O)NCCO,-24%,15,2%,-6.6%,0.9,-6,0%
CC(C)CN=Cc1c(O)c([N+](=O)[O-])cc2oc3c(c12)CCCC3,-1%,-3,-25%,-1.7%,?,-44,-15%
Cc1nn(-c2ccccc2)c(C)c1/C=N/n1cnnc1,-6%[15.4 µM],18,/,/,-4.2,-17,-1%
CCCOc1ccc2ccccc2c1/C=C1\SC(=O)NC1=O,-26%,5,-29%,-0.8%,3.4,28,?
O=C(COC(=O)c1ccc2c(c1)OCCO2)NCCC1=CCCCC1,3%,10,-11%,-0.7%,0.9,-12,12%
O=C(CN1CCN(S(=O)(=O)c2ccc(Br)cc2)CC1)N/N=C/c1ccccc1C(=O)O,7%,6,-12%,-0.9%,/,-5,18%
O=C(O)c1cccc(Nc2nc(C(F)(F)F)nc3ccccc23)c1,11%[15.4 µM],?,0%,/,-19,-4,1%
CCC(=O)NC(=S)NNC(=O)COc1ccc(Br)cc1,5%[15.4 µM],7,11%,/,-2.6,0,-12%
CCOC(=O)C1=C(C)NC(SC)=NC1c1ccccc1 (stereo not given),3%,3,-16%,-1.3%,2.6,6,-1%
O=C(CN1CCN(c2ccc(Cl)cc2)CC1)Nc1cccc(F)c1,0%,-7,1%,-3.9%,0.3,-43,20%
COc1ccc(-c2nnc(SCc3cc(C)cc(C)c3)o2)cc1,2%,23,-18%,-1.4%,4.4,-11,-19%
C=C(C)Cn1c(=O)c(NC(=O)c2ccccc2)c2n(c1=S)CCC2,-28%,2,-1%,0.0%,2.3,-10,4%
CCC1CCCCN1CCCNC(=O)CSc1nc2nc(C)c(Cc3ccccc3Cl)c(C)n2n1 (stereo not given),7%,7,10%,-7.5%,/,-17,9%
COc1ccc(S(=O)(=O)NNC(=O)C2Cc3c(ccc4ccccc34)O2)cc1 (stereo not given),-3%,/,?,-1.5%,7.6,4,9%
O=C(CNC(=O)C12CC3CC(CC(C3)C1)C2)Nc1ncccc1O,32%,11,10%,0.0%,/,0,/
COc1ccccc1/C=C/C(=O)NCC(=O)N/N=C(\CCC(=O)O)c1ccccc1,-26%,26,3%,/,-1.3,-9,6%
Cc1cc(OCC(=O)Nc2ccc(CN3CCCCC3)cc2)ccc1Cl,22%[15.4 µM],0,10%,/,11,-10,-9%
O=C(OCC(=O)N1CCCCC1)c1ccc2ccccc2n1,14%,/,-13%,-12%,/,-1,/
O=C(CSc1nc2[nH]c(=O)cc(O)c2s1)Nc1nccs1,-43%,1,2%,32µM*,/,-15,/
CCOC(=O)C1CCCN(CC(=O)NC2=Nc3ccccc3N=C(C)C2c2ccccc2)C1 (stereo not given),5%,1,-6%,1.4%,1.9,-14,6%
COc1ccccc1NS(=O)(=O)c1ccc(C(=O)N2CCCC(C(F)(F)F)C2)cc1 (stereo not given),-59%[inhibitor],-16,9%,-1.1%,/,-5,/
Cc1cc(Br)c2c(c1)C(O)(N1CCCCC1C)C(=O)N2 (stereo not given),-3%[15.4 µM],-7,13%,0.6%,8.5,-10,10%
COc1ccccc1NS(=O)(=O)c1cc(NC(=O)c2cccs2)ccc1N1CCCCC1,6%,10,2%,-16%,2.5,-7,17%

# Reformatted as tab-separated lines: 2 of the compounds above
Compound	gsp ag	TRPV1 potentiator	gsp antagonist	ClpP mod	Menin-MLL FL inh	D2 PAM	Sfp inh
CCC1CCCCN1CCCNC(=O)CSc1nc2nc(C)c(Cc3ccccc3Cl)c(C)n2n1 (stereo not given)	7%	7	10%	-7.5%	/	-17	9%
COc1ccc(S(=O)(=O)NNC(=O)C2Cc3c(ccc4ccccc34)O2)cc1 (stereo not given)	-3%	/	?	-1.5%	7.6	4	9%

# Next entries
SMILES,gsp ag,TRPV1 potentiator,gsp antagonist,ClpP mod,Menin-MLL FL inh,D2 PAM,Sfp inh
NC(=O)C1(N2CCCCC2)CCN(C(=O)Nc2ccccc2C(F)(F)F)CC1,?,-4,1%,-2.0%,1.4,13,?
Cc1ccc(S(=O)(=O)NCC(=O)N(CC(=O)NCC2CCCO2)Cc2ccccc2Cl)cc1 (stereo not given),5%[15.4 µM],-11,-21%,0.3%,-0.2,-7,22%
CCC(=O)N1CCc2cc(S(=O)(=O)CCC(=O)NCCc3ccccc3)ccc21,-19%,7,15%,0.7%,0.7,-14,-8%
CCN1CCN(C(=S)Nc2cc(C(=O)OC)ccc2C(=O)OC)CC1,-12%,-43,6%,-29%,-3.8,-20,-10%
CCn1c(SCC(=O)N2CCN(c3ccccc3)CC2)nnc1-c1ccoc1C,5%,/,15%,2.4%,5.3,-16,10%
Cc1cc2cc(C#N)c(N3CCN(S(C)(=O)=O)CC3)nc2cc1C,13%,-18,0%,20µM*,6.7,-2,-17%
CC1CCN(C(=O)c2[nH]cnc2C(=O)Nc2cccc(Cl)c2)CC1,?,-7,-1%,53%,/,-17,/
COCCN(C(=O)COC(=O)C12CC3CC(CC(C3)C1)C2)c1c(N)n(Cc2ccccc2)c(=O)[nH]c1=O,-1%,/,1%,0.3%,/,-5,/
COc1ccc(CN2C(=O)c3ccccc3C2=O)cc1C(=O)OC(C)C(=O)NC(N)=O (stereo not given),?,4,3%,2.8%,5.4,0,4%

# Look-ups from the list:
# Menin-MLL FL inh, CCn1c(SCC(=O)N2CCN(c3ccccc3)CC2)nnc1-c1ccoc1C → 5.3
# Sfp inh, COc1ccc(CN2C(=O)c3ccccc3C2=O)cc1C(=O)OC(C)C(=O)NC(N)=O (stereo not given) → 4%
# Sfp inh, Cc1cc2cc(C#N)c(N3CCN(S(C)(=O)=O)CC3)nc2cc1C → -17%
# gsp antagonist, COCCN(C(=O)COC(=O)C12CC3CC(CC(C3)C1)C2)c1c(N)n(Cc2ccccc2)c(=O)[nH]c1=O → 1%
# TRPV1 potentiator, CCC(=O)N1CCc2cc(S(=O)(=O)CCC(=O)NCCc3ccccc3)ccc21 → 7
# D2 PAM, NC(=O)C1(N2CCCCC2)CCN(C(=O)Nc2ccccc2C(F)(F)F)CC1 → 13
